HSD17B inhib – blocks hydroxysteroid 17-beta dehydrogenase activity. Q99714. recombinant HSD17B10, NADH fluorescence kinetic; many of its hits are not listed in these tables. Potency, µM (highest dose often 57.1 µM), without a hit: at the top dose activity change, negative = inhibition, most hits filed as inhibitors. 75,000 tested, 7.6% active; active = well fitted inhibition curve with a large enough effect; inconclusive = small, poorly fitted or top-dose-only effect; inactive = no such curve, though single readings can be large or run the other way;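 note: the protocol describes HADH2 (HSD17B10) and not the HSD17B4 of the title; nearly all actives have a fitted effect of over 70% in size; most hits overshoot -100% by far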
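20 nM HADH2, pH 9.0 Tris/Tween; cpd preinc 15 min RT; start w/ 1 mM NAD+ + 90 uM b-hydroxybutyryl-CoA; kinetic fluor ex360/em450 q30s x 4 min; delta last-first.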
Numbers without * were called inactive; ? = inconclusive; & = joins results of further samples; [ ] = dose if it differs, or a comment. % is set by controls: 0 for no effect and ±100 for the full control effect; potency is the fitted concentration of half-maximal effect.

Start of the data: the first four compounds, to show the layout:
SMILES	HSD17B inhib
O=C(NC1CCCCCC1)c1ccc(N2CCCC2=O)cc1	5%
CCOC(=O)C1CCCN(C(=O)C2CC(=O)N(c3ccc(C)cc3)C2)C1 (stereo not drawn)	14%
O=C(CSc1nc(-c2cccs2)cc(C(F)(F)F)n1)NCc1ccco1	-16%
CS(=O)(=O)CCNCc1nc(-c2ccc3ncnc(Nc4ccc(OCc5cccc(F)c5)c(Cl)c4)c3c2)cs1	?

The whole of this part, from the first entry:
SMILES	HSD17B inhib
O=C(NC1CCCCCC1)c1ccc(N2CCCC2=O)cc1	5%
CCOC(=O)C1CCCN(C(=O)C2CC(=O)N(c3ccc(C)cc3)C2)C1 (stereo not drawn)	14%
O=C(CSc1nc(-c2cccs2)cc(C(F)(F)F)n1)NCc1ccco1	-16%
CS(=O)(=O)CCNCc1nc(-c2ccc3ncnc(Nc4ccc(OCc5cccc(F)c5)c(Cl)c4)c3c2)cs1	?
Cc1cccc(-c2nc(CSCC(=O)N3CCN(c4ccccn4)CC3)c(C)o2)c1	-2%
CC(=O)NCCNc1ncnc2ccc(-c3c(C)noc3C)cc12	?
CC(=O)NC(CCC(=O)O)C(=O)O (stereo not drawn)	-2%
Cc1ccc(C)c(S(=O)(=O)Nc2ccc(S(=O)(=O)Nc3onc(C)c3C)cc2)c1	-6%
O=C1CCCN1CC(CN1CCOCC1)Sc1nnnn1-c1ccccc1 (stereo not drawn)	2%
CCCCN(CC)C(=O)Cc1c(C(=O)O)[nH]c2ccc(Cl)cc12	-7%
O=S(=O)(NCc1ccc2c(c1)OCO2)c1cccc(S(=O)(=O)N2CCOCC2)c1	4%
CCCC(c1nnnn1C1CCCCC1)N1CCN(C2CCCC2)CC1 (stereo not drawn)	12%

Exported with each value named: entries from further up.
> O=C(NC1CCCCCC1)c1ccc(N2CCCC2=O)cc1
  HSD17B inhib: 5%
> CCOC(=O)C1CCCN(C(=O)C2CC(=O)N(c3ccc(C)cc3)C2)C1 (stereo not drawn)
  HSD17B inhib: 14%

Remaining list, next part:
SMILES	HSD17B inhib
NC(=O)c1cc(Cl)cn(-c2ccccc2)c1=O	-6%
c1cc2c(cc1Nc1nc(-c3ccc4c(c3)OCO4)cs1)OCCO2	-8%
CS(=O)(=O)N(C(=O)NC(=O)NC1CCS(=O)(=O)C1)C1CCCCC1 (stereo not drawn)	7%
COc1ccccc1OCc1nnc(SCC(=O)NCc2ccco2)n1Cc1ccco1	-3%
COc1ccc(CC(NC(C)=O)C(=O)NC2CCN(c3c4c(nc5ncnn35)CCC4)CC2)cc1 (stereo not drawn)	5%
O=C(Nc1ccc(N2CCCC2)cc1)c1ccc(Br)o1	-6%
O=C(Nc1ccc(N2CCCCC2)cc1)c1ccccc1	6%
COc1cc(NC(=O)c2cc3ccccc3o2)c(OC)cc1Cl	32µM*
COc1ccc(NC(=O)CN2CCN(CC(=O)Nc3ccc4c(c3)OCO4)CC2)cc1	8%
CSc1cccc(NC(=O)OC2CCCCCCCCCCC2)c1	5%[11.4 µM]
COc1ccc(/C=C/C(=O)c2ccc(OC)cc2O)cc1	-5%[11.4 µM]
CCOc1cccc(C(=O)N(Cc2ccc(F)cc2)C2CCS(=O)(=O)C2)c1 (stereo not drawn)	8%
CC(C)CC(=O)Nc1ccc(-c2cn3ccsc3n2)cc1	1%
CC(CN1CCCC1)OC(=O)COc1ccccc1 (stereo not drawn)	12%
N#Cc1c(SCC(N)=O)nc2c(c1-c1ccc(O)cc1)CCCC2	1%
COc1ccc(Cn2nnnc2C(c2cccs2)N2CCSCC2)cc1 (stereo not drawn)	8%
COc1ccc(CN2CCN(C(=O)CC(C)C)CC2)c2ccccc12	8%
CCOC(=O)c1[nH]c(C)c(/C=N/O)c1C	-20%
CCOc1ccccc1C1NC(=O)NC(C)=C1C(=O)OCc1ccco1 (stereo not drawn)	6%
CN1C(=O)N(C)C(NC(=O)Nc2ccccc2)C1NC(=O)Nc1ccccc1 (stereo not drawn)	2%
CCC(C)NC(=O)C(NS(=O)(=O)c1cccc2nsnc12)c1ccccc1 (stereo not drawn)	-2%
Brc1c(CSc2nncn2-c2ccccc2)nc2sccn12	13%
Cc1c(C(=O)Nc2ccncc2)oc2ccccc12	-1%
CCOC(=O)NC(=O)CSc1nnnn1-c1ccc(Cl)cc1	-1%
Cn1c(NCCO)nc2c(c1=O)C1(CCCCC1)Cc1ccccc1-2	32µM*
COc1ccc(OC)c(C2C(C(C)=O)=C(O)C(=O)N2c2ccc(O)cc2)c1 (stereo not drawn)	-23%
Clc1ccc(Cn2ncc3c(N4CCCCC4)ncnc32)cc1	-1%
CC(C)N(C(=O)CN(C#N)c1nc(N(C)C)nc(N(C)C)n1)c1ccccc1	2%
CCc1oc(C(=O)O)cc1CN(CC)CC	15%
O=C(O)c1cc(/C=N\O)ccc1OCc1ccccc1	5%
c1ccc(C2=Nn3c(nnc3-c3n[nH]c4c3CCC4)SC2)cc1	0%
c1ccc2nc(-c3nc4ccccc4[nH]3)ccc2c1	10µM*
COC(=O)[C@H](C)NC(=O)Nc1ccc(C)c(C)c1	4%
C=C(C)c1cccc(C(C)(C)NC(=O)Nc2ncccn2)c1	-1%
CC(C)C12CN3CC(C(C)C)(CN(C1)C3c1ccccc1)C2O (stereo not drawn)	8%
O=C(OCC(=O)N1CCCCC1)c1c[nH]c(=O)[nH]c1=O	8%
COc1ccc(C(C)C)cc1S(=O)(=O)Nc1ccc(Cl)cn1	2%
CCOc1cccc(NC(=O)c2ccc(S(=O)(=O)N(C)C)cc2)c1	-12%
O=S1(=O)N=C(Nc2ccc(N3CCOCC3)cc2)c2ccccc21	0%
COc1ccc(C2C(C(=O)Nc3ccccc3OC)=C(C)Nc3nnnn32)c(OC)c1 (stereo not drawn)	4%
O=C1CC(c2ccccc2)Sc2ccccc2N1 (stereo not drawn)	-1%
CCN(CC)S(=O)(=O)c1ccc(NC2c3ncccc3C(=O)N2Cc2ccccc2)cc1 (stereo not drawn)	?
O=C(CN1CCC(NC(=O)c2cccc(F)c2)CC1)NCc1ccccc1F	0%
Cc1c(C(N)=O)c(N)c(C(=O)c2ccccc2)n1-c1ccccc1	2%
CC1(c2cccs2)CC(c2cccs2)=C(C#N)C(=O)N1 (stereo not drawn)	40µM*
CCc1c(C)n([O-])c2c([n+]1=O)CCCCC2	-2%
Cc1ccc(SCCC(=O)NCC2CCCO2)cc1 (stereo not drawn)	9%
CN1C(=O)N(C)C2C1N(CN1CCCCC1)C(=O)N2CN1CCCCC1 (stereo not drawn)	6%
O=C1OCCC1Sc1nc2cc(Cl)ccc2s1 (stereo not drawn)	0%
O=C(CSc1nnc(Cn2c(=O)sc3ccccc32)n1-c1ccccc1)NCC1CCCO1 (stereo not drawn)	3%
Cc1cscn1	-7%
Nc1ccccc1C#CCCCCO	-23%
O=C(c1ccco1)N1CCC2(CC1)CCN(c1ncccn1)CC2	32µM*
COC(=O)c1c(C)[nH]c(C(=O)C(C)Sc2nnc(-c3cc(OC)c(OC)c(OC)c3)o2)c1C (stereo not drawn)	-2%
Cc1cc(N2CCC(C)CC2)n2ncc(-c3ccccc3)c2n1	25µM*
CCOC(=O)/N=C(/NC(=O)Nc1ccc(C(=O)OCC)cc1)OC	-7%
CSCCNC(=O)c1ccc(C(C)(C)C)cc1	-2%
O=C(O)CCC(=O)Nc1ccccc1C(=O)NC1CCCCC1	1%
CCCC(OC(=O)CN1C(=O)COc2ccccc21)C(=O)NC1CCCC1 (stereo not drawn)	13%
COc1cc(S(=O)(=O)N(C)C)ccc1F	5%

Later entries.
SMILES	HSD17B inhib
CC(=O)c1ccc(N2CCN(C(=O)c3ccc(OCc4c(C)noc4C)cc3)CC2)cc1	-9%
O=C(CS(=O)(=O)Cc1ccccc1)Nc1ncccn1	6%
Nc1nc(-c2cccnc2)nn1C(=O)COc1ccccc1	15%
CC(C)(C)n1nc2c(c1NC(=O)c1cccs1)CS(=O)C2 (stereo not drawn)	3%
CC(=O)OC[C@@H]1O[C@@H](O/N=C2/C[C@@H](O)[C@@H](O)[C@@H]3[C@@H]4C(=O)N([C@@H](C)c5ccccc5)C(=O)[C@H]4CC[C@H]23)[C@H](OC(C)=O)[C@H](OC(C)=O)[C@@H]1OC(C)=O	1%[11.4 µM]
Cc1noc(NS(=O)(=O)c2ccc(N/C=C/C(=O)c3ccc4c(c3)OCO4)cc2)c1C	-18%
COc1ccccc1NC(=O)Cc1cccs1	0%
O=c1cc(-c2ccc(O)cc2)oc2ccc(O)cc12	-22%
Cc1cc(C)cc(/C=C/C2OCC(O)C2Oc2ccc(C3CCCC3)cc2)c1 (stereo not drawn)	1%&-5%[11.4 µM]
CC1CCN(C(=O)CSc2nnc(CNC(=O)c3ccco3)o2)CC1	-5%
CCN(CC)C(=O)CSc1nc2ccccc2c(=O)n1-c1ccccc1OC	-3%
COc1ccccc1-c1cc(C(=O)NCCN2CCOCC2)no1	?
COc1ccc(OC2C=CC(C#Cc3ccc(C(C)(C)C)cc3)OC2CO)cc1 (stereo not drawn)	4%[11.4 µM]
Cc1c(-c2nc(N)nc(C3CC3)c2C)nc(N)nc1C1CC1	-3%[11.4 µM]
COCCNS(=O)(=O)c1ccc(OCC(=O)OC)c(Cl)c1	10%
Cc1cc(NC(=O)C2CCCCC2C(=O)O)no1 (stereo not drawn)	9%
O=C(CCN1C(=O)COc2ccccc21)NCc1cccs1	-2%
CC1(C)O[C@@H]2O[C@H]([C@@H]3COC(C)(C)O3)[C@H](N)[C@H]2O1	2%[11.4 µM]
COc1cccc(N(CC(=O)O)S(=O)(=O)c2ccccc2)c1	8%
CCOC(=O)CCN1C(=O)[C@H]2[C@H]3[C@H](O)[C@H](O)C/C(=N/OCc4ccccc4)[C@@H]3CC[C@@H]2C1=O	4%[11.4 µM]
O=C1CSC(=NC2CCCCC2)N1	-9%
CSc1nc2cc(Cl)ccc2s1	-7%
CC(C)NC(=O)N1CC2(CCN(C(=O)c3cc(C(F)(F)F)cc(C(F)(F)F)c3)CC2)C1	4%
CCOC(=O)N1CCN(CCC(=O)Nc2cccc(Br)c2)CC1	8%
CCOC(=O)c1ccc(NC(=O)COC)cc1	8%
COc1cc(NC(=O)CN2CCN(c3ccccc3F)CC2)cc(OC)c1	-4%
O=c1c2c3c(sc2n(CCN2CCOCC2)c(=O)n1Cc1ccco1)CCCCC3	-2%
COCC(=O)N1CCC2(CCCN(C(c3ccccc3)c3ccccc3)C2)CC1	-1%
O=C(CSc1nn(-c2ccc(F)cc2)c(=S)s1)N1CCN(C(=O)c2ccco2)CC1	?
COCCCNC(=O)CCn1c(=O)c2ccccc2n(CC(=O)Nc2c(C)cccc2C)c1=O	-3%
CCCCSc1nnc([C@@H](NC(=O)OC(C)(C)C)C(C)C)o1	6%
Cc1ccc(NC(=O)CSc2n[nH]c(-c3ccncc3)n2)cc1	2%
Cc1ccc(C(C)C)c(OCc2nnc3n2CCCCC3)c1	6%
CCN1CCCC1CNC(=O)C(NC(=O)C1CCC(C)CC1)C(C)C (stereo not drawn)	17%
CN(c1nc2ccccc2n2c(-c3ccco3)nnc12)S(=O)(=O)c1ccccc1	1µM*
CCN1C2=NCCCN2c2cc(C)c(C)cc21	-2%
C=CCN(CC=C)C(=O)C1CCC(C(=O)N(CC=C)CC=C)CC1 (stereo not drawn)	1%
O=C1CCCc2nc(N3CCN(c4ccccc4)CC3)ncc21	4%
CCc1cc2ccccc2nc1SCC(=O)Nc1cc(C)on1	?
Cc1cccc(C)c1NC(=O)C(c1ccccc1)N1CCC2(CC1)OCCO2 (stereo not drawn)	10%
O=C1C2CC=C(Cl)CC2C(=O)N1c1ncn[nH]1 (stereo not drawn)	-4%
CN1CCN(C(=O)C2CCCCC2C(=O)O)CC1 (stereo not drawn)	-3%
CN(C(=O)C1CCOC1)c1nnc(C2CCOC2)s1 (stereo not drawn)	8%
COc1ccc(OC)c(CC(NC(C)=O)C(=O)NC2CCN(c3nc(C)cc(C)c3C#N)CC2)c1 (stereo not drawn)	?
C[C@@H](c1ccccc1)N1C(=O)[C@H]2[C@H]3[C@H](O)[C@H](O)C/C(=N/OC[C@@H](O)COCc4ccco4)[C@@H]3CC[C@@H]2C1=O	2%[11.4 µM]
O=C(CSCc1cnn(-c2ccccc2)c1-n1cccc1)NCc1ccc2c(c1)OCO2	3%
Cc1oc(-c2ccccc2F)nc1CN1CCC(C(=O)NCCC2=CCCCC2)CC1	-13%
CCOc1cccc2c1OC1(C)CC2NC(=O)N1c1ccc(OC)cc1 (stereo not drawn)	16%
CCOC(=O)c1ccc(N2C(=O)CC(NC3CCN(C(=O)c4ccc(F)cc4)CC3)C2=O)cc1 (stereo not drawn)	1%
CC(=O)c1sc(NC(=O)C2COc3ccccc3O2)nc1C (stereo not drawn)	-2%
CC(C)CNC(=O)c1noc2c1CCCC2	7%
CN(C)S(=O)(=O)c1cccc(COC(=O)C2=COCCO2)c1	-1%

These rows are one share of the data. The share of hits here may be higher or lower than overall.
